RE007 growth inh: qHTS Assay for Inhibitors of the HIV-1 protein Vpr; S. pombe RE007 Vpr strain, BacTiter-Glo ATP luminescence, 24 h; control for the full effect not named in the record; Potency, µM (doses to about 92.2 µM), for inactives: at the top dose activity change, negative = less growth; 0.21% of 360,000 active; AID 651644, 2012; active = well fitted falling curve with a large enough effect; inconclusive = small, poorly fitted or top-dose-only effect; inactive = no such curve, though single readings can be large or run the other way;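 note: % is set by controls: 0 for no effect and ±100 for the full control effect; nearly all actives have a fitted effect of over 50% in size; the assay follows cell death caused by Vpr and the record does not say whether a fall means rescue or toxicity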
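Fission yeast RE007 carrying one integrated HIV-1 vpr copy, seeded at OD 0.01 in PMG+AL medium with 23 nL pinned compound. Grown 24 h at 30 degrees; viability read by BacTiter-Glo luminescence after 5 min.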
NS1 function inh: qHTS Assay for Inhibitors of Influenza NS1 Protein Function | S. cerevisiae slowed by influenza A NS1, growth recovery by OD600 | Potency, µM (top dose mostly 46.1 µM), without a hit: at the top dose activity, positive = more growth | 0.4% of 270,000 active | AID 2326, 2010; active means well fitted rising curve with a large enough effect; inconclusive means small, poorly fitted or top-dose-only effect; inactive means no such curve, though single readings can be large or run the other way; note: nearly all actives have a fitted effect of over 50% in size
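Growth recovery, yeast-based: influenza A NS1 expressed in S. cerevisiae causes slow growth, and suppressors are detected by OD600. The parent strain without NS1 is used as positive control.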
Cruzain Triton: qHTS Assay for Promiscuous and Specific Inhibitors of Cruzain (with detergent); Cruzipain (Trypanosoma cruzi), P25779; purified cruzain, Z-FR-AMC fluorescence, 0.01% Triton; Potency, µM, for inactives: max response, negative = inhibition, actives largely listed as inhibitors; 0.43% of 200,000 active;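 note: plate controls were neutral wells for no effect and buffer without enzyme for full effect; nearly all actives have a fitted effect of over 40% in size; top concentration of the series not given in the record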
Target sequence (P25779 123-467 limits assumed): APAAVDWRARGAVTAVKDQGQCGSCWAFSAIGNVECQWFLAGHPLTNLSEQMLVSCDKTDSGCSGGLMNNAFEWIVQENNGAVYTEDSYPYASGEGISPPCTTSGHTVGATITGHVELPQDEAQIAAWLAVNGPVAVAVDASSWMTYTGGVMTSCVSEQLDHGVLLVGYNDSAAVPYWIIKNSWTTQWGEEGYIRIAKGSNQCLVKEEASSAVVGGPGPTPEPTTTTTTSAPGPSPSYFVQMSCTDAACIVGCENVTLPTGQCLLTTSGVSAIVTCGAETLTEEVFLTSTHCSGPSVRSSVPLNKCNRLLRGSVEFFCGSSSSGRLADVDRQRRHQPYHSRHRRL
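Purified cruzain (1.5 nM final) was preincubated with compounds for 15 min at room temperature in 100 mM sodium acetate pH 5.5, 5 mM DTT, 0.01% Triton X-100. Reaction started with 2 uM Z-FR-AMC; AMC fluorescence change over 60 s gave activity.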
Lassa entry inh: qHTS for Inhibitors of binding or entry into cells for Lassa Virus | 1.2% of 300,000 active | Potency, µM (doses to about 37.9 µM), without a hit: at the top dose activity change, negative = inhibition, actives largely listed as inhibitors | Lassa virus pseudotype entry inhibition, cell reporter; control for the full effect not named in the record; active means well fitted inhibition curve with a large enough effect; inconclusive means small, poorly fitted or top-dose-only effect, or effect the other way; inactive means flat fitted curve, though single readings scatter; tested in HEK293 cells; note: % is set by controls: 0 for no effect and ±100 for the full control effect; nearly all actives have a fitted effect of over 50% in size; luciferase read-out
2A StopGo: High Throughput Screening for Foot and Mouth Disease Virus Antivirals. Potency, µM (top dose mostly 57.9 µM), inactives show at the highest dose signal change, negative = less light. 1.2% of 410,000 active. human cells with a luciferase reporter of 2A StopGo recoding; control for the full effect not named in the record; active = well fitted falling curve with a large enough effect; inconclusive = small, poorly fitted or top-dose-only effect; inactive = no such curve, though single readings can be large or run the other way; tested in HEK293T cells; note: % is set by controls: 0 for no effect and ±100 for the full control effect; nearly all actives have a fitted effect of over 45% in size; luciferase light after 4 h
SARS PLpro yeast: qHTS of Yeast-based Assay for SARS-CoV PLP; 0.19% of 330,000 active; Potency, µM (series often up to 32.9 µM), for the others: at the top dose activity, positive = growth rescue; S. cerevisiae expressing SARS-CoV PLpro, growth rescue; control for the full effect not named in the record; active means well fitted rising curve with a large enough effect; inconclusive means small, poorly fitted or top-dose-only effect; inactive means no such curve, though single readings can be large or run the other way; note: 0% is about no effect; nearly all actives have a fitted effect of over 55% in size; growth read by luminescence after 48 h
MARV entry inh: qHTS for inhibitors of binding or entry into cells for Marburg Virus | Potency, µM (highest dose often 37.8 µM), for inactives: at the top dose activity change, negative = inhibition, actives largely listed as inhibitors | AID 540276, 2011 | Marburg virus pseudotyped entry inhibition, cell reporter; control for the full effect not named in the record; about a third of the inactives were read at about 46 µM | 1.8% of 300,000 active; active = well fitted inhibition curve with a large enough effect; inconclusive = small, poorly fitted or top-dose-only effect, or effect the other way; inactive = flat fitted curve, though single readings scatter; tested in HEK293 cells; about a fifth of its hits are not listed in these tables; note: % is set by controls: 0 for no effect and ±100 for the full control effect; luciferase read-out
Cruzain inh noDet: qHTS Assay for Promiscuous and Specific Inhibitors of Cruzain (without detergent). Cruzipain (Trypanosoma cruzi), P25779. purified cruzain, Z-FR-AMC fluorescence, no detergent. Potency, µM, without a hit: max response, negative = inhibition, most hits filed as inhibitors. 2.3% of 200,000 active. AID 1476, 2009;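 note: plate controls were enzyme without inhibitor for no effect and buffer without enzyme for full effect; nearly all actives have a fitted effect of over 40% in size; top concentration of the series not given in the record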
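Detergent-free condition (0.00005% Triton X-100) in acetate buffer pH 5.5 with DTT. 1.5 nM enzyme and compound were pre-mixed 15 min, then 2 uM Z-FR-AMC substrate added; reaction progress from fluorescence change between first and third reads (60 s).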
* hit, by the source's call; ? = inconclusive; / = not tested or not shown; & = joins results of further samples; [ ] = dose if it differs, or a comment. Unless noted, calls come from the whole dose curve; as a rule, active = well fitted curve in the direction sought with a large enough effect; inconclusive = small, poorly fitted or top-dose-only effect, or another doubt; inactive = no such curve, though single readings can be large; an effect the other way counts as inactive or inconclusive. Potency is the fitted concentration of half-maximal effect.

SMILES	RE007 growth inh	NS1 function inh	Cruzain Triton	Lassa entry inh	2A StopGo	SARS PLpro yeast	MARV entry inh	Cruzain inh noDet
COc1cccc(CN2CCCCC2c2cccnc2)c1 (stereo not drawn)	-7%	-12%	2.7%	-1%	/	3%	-2%	-8%
O=C1CN(C(=O)COc2ccccc2)c2ccccc2N1	-13%	9%	/	/	4%	-4%	/	/
O=C(Nc1ccc(N2CCN(C(=O)c3ccco3)CC2)cc1)c1ccc(F)cc1	-7%	2%	-2.3%	6%	-30%	11%	12%	9%
CC(NC(=O)CCc1cn(Cc2ccccc2Cl)c2ccccc12)c1ccccc1 (stereo not drawn)	/	/	-2.0%	-4%[46.1 µM]	-13%	/	/	-21%
COc1ccccc1-c1noc(CCCC(=O)Nc2cc(C)ccc2C)n1	/	/	-0.7%	-5%[46.1 µM]	-21%	/	-7%[46.1 µM]	-2%
Cn1c(N2CCN(S(=O)(=O)c3ccc(F)cc3)CC2)nc2ccccc21	2%	3%	/	-18%	?	-1%	-29%[46.1 µM]	/
O=C(CSc1nc(-c2ccccc2)c(-c2ccccc2)o1)Nc1nnc(-c2ccccc2)s1	-7%	2%	-4.2%	-1%	-20%	9%	-4%	10µM*
COC(=O)CN1C(=O)COc2ccc(S(=O)(=O)N3CCOCC3)cc21	11%	9%	/	1%[46.1 µM]	10%	5%	?	/
O=C(/C=C/Nc1ccc(F)c(Cl)c1)c1ccccc1	5%	-6%	/	/	31%[activator]	11%	/	/
CCC(C)(C)NC(=O)Cc1ccc(F)cc1	6%	3%	/	-1%	-6%	1%	11%[46.1 µM]	/
CSc1cccc(NC(=O)N2CCc3ccc(NC(=O)c4ccccn4)cc3C2)c1	-16%	5%	/	/	-28%	-8%	/	/
CCOC(=O)c1cc(OC(=O)c2ccccc2)n(-c2ccccc2)n1	3%	18%	0.9%	3%	28%	3%	4%	5%
Cc1cc(-c2ccc(Cl)cc2)c2cnn(C(C)C)c2n1	-12%	-8%	/	/	7%	-2%	/	/
O=C(/C=C/c1ccc(Cl)cc1)NC(=S)NN1CCCCC1c1cccnc1 (stereo not drawn)	/	1%	-16%	-15%	/	-24%	-4%	-3%
Cc1cc(NC(=O)CSc2nc(N)c(NC(=O)c3ccccc3)c(=O)[nH]2)no1	0%	/	/	10%	-15%	0%	?	/
O=C(c1ccc2c(=O)n3c(nc2c1)CCCCC3)N1CCN(c2ccccc2)CC1	10%	-6%	/	-13%	-13%	1%	1%[46.1 µM]	/
CCC(C)c1ccc(NS(=O)(=O)c2c(C)[nH]c(=O)[nH]c2=O)cc1 (stereo not drawn)	-10%	2%	/	/	-2%	0%	/	/
COc1ccc(-n2nc3c(c2NC(=O)c2cc4ccccc4o2)CS(=O)(=O)C3)cc1	10%	-8%	/	9%	-12%	13%	2%	/
O=C(O)CCc1ccc(-c2ccccc2)n1-c1cccc(Br)c1	/	/	-13%	-2%[46.1 µM]	-16%	/	12%[46.1 µM]	-12%
Cc1ccccc1C(=O)N1CCN(c2ncnc3c2cnn3-c2ccccc2)CC1	-16%	0%	0.4%	-15%	20µM*	-7%	?	?
Cc1ccc(C(=O)c2cn(Cc3cccc(F)c3)c3nc(C)ccc3c2=O)cc1	/	/	-9.5%	-3%[46.1 µM]	-11%	/	?	?
Cc1ccc(-n2c(=O)c3c(C)c(C)sc3n(Cc3ccc(F)cc3Cl)c2=O)cc1C	/	/	-1.3%	21%[46.1 µM]	-21%	/	15%[46.1 µM]	2%
Cc1ccc(-n2c(O)c(C=NCCN3CCOCC3)c(=O)[nH]c2=O)cc1	0%	0%	1.4%	-9%	-4%	2%	6%	-1%
CC1(C)C2CC=C(/C=N/NC(=S)Nc3cccnc3)C1C2 (stereo not drawn)	13%	/	/	-7%	-17%	1%	17%	/
COc1ccc(CNC(=O)C2CCN(S(=O)(=O)N3CCCCC3)CC2)c(OC)c1	19%	-8%	/	/	6%	5%	/	/
CC(C)(C)c1ccc(OCC(=O)NCCN2CCOCC2)cc1	-6%	5%	/	3%[46.1 µM]	6%	0%	13%[46.1 µM]	/
COc1ccc(CCN2C(=O)CN(Cc3ccccc3)CC2=O)cc1OC	3%	-17%	-2.7%	-6%	-7%	-3%	2%	-3%
CC(Nc1c[nH]c(=O)[nH]c1=O)c1ccccc1 (stereo not drawn)	10%	26%	/	5%[46.1 µM]	5%	-2%	1%[46.1 µM]	/
CC(C)C[C@@H](CSc1ccc(Br)cc1)N1CCN(C)CCC1=O	18%	?	/	/	55%[activator]	0%	/	/
Cc1ccc(N(C(=O)CNC(=O)c2ccco2)C(C(=O)NC2CCCC2)c2cccnc2)c(C)c1 (stereo not drawn)	-1%	4%	/	?	16%	2%	5%[46.1 µM]	/
COCCn1nnnc1C(CC(C)C)N1CCN(C(=O)c2ccco2)CC1 (stereo not drawn)	10%	0%	-0.1%	5%	-12%	4%	20%&0%	13%
COC(=O)CSC1=C(C#N)C(c2ccccc2F)CC(=O)N1 (stereo not drawn)	6%	10%	/	/	-17%	1%	/	/
O=C(CCn1c(=O)sc2ccccc21)Nc1nccs1	-6%	-3%	7.1%	1%	52%[activator]	5%	11%	1%
O=C(NCC(O)COc1ccc([N+](=O)[O-])cc1)Nc1ccccc1 (stereo not drawn)	6%	-2%	/	18%	17%	-1%	5%[14.2 µM]	/
Cc1ccc2oc(=O)c3cc(C(=O)Nc4ccc(C)c(F)c4)sc3c2c1	/	/	2.1%	?	-15%	/	5%[46.1 µM]	-2%
CNC(=O)C1CCN(S(=O)(=O)c2c(C)noc2/C=C/c2ccc(OC)cc2)CC1	15%	8%	/	/	-19%	2%	/	/
Cc1c(N=Nc2ccc(N(C)C)cc2)c(=O)n(-c2ccccc2)n1C	7%	2%	/	-13%[46.1 µM]	37%[activator]	0%	?	/
COc1ccc(CCNC(=O)c2csc3c2CCCCC3)c(OC)c1	/	/	0.1%	/	-10%	/	?	-7%
COc1cc(C(=O)N/N=C/c2ccc(OC(=O)c3ccccc3Cl)cc2)ccc1O	4%	-8%	/	1%	?	-4%	6%	/
O=C(Nc1cc(S(=O)(=O)N2CCCCCC2)ccc1OCC(F)(F)F)c1cnccn1	17%	/	/	-1%	-12%	3%	7%	/
CCOc1ccc(S(=O)(=O)NCCc2sc3nc(-c4ccc(F)cc4)nn3c2C)cc1	/	/	-7.3%	?	-18%	/	/	?
Cc1nn(CCCC(=O)Nc2ccccn2)c(C)c1[N+](=O)[O-]	5%	/	/	-6%	-1%	-2%	6%[46.1 µM]	/
COC(=O)c1ccccc1NC(=S)NC(=O)COc1ccc(C)cc1	-3%	/	/	10%	0%	/	6%	/
CCC(=O)N(Cc1cc2ccccc2[nH]c1=O)c1ccc(OC)cc1	7%	0%	/	?	-13%	0%	1%[46.1 µM]	/
COCCNC(=S)N(CCc1c(C)[nH]c2ccc(C)cc12)Cc1cc(OC)c(OC)c(OC)c1	-4%	-5%	4.1%	?	-11%	9%	?	?
Cc1nc2ccc(S(=O)(=O)NC(C(=O)NC3CCCC3)C(C)C)cc2s1 (stereo not drawn)	4%	?	-1.2%	/	-3%	-2%	/	-3%
CC(C)c1cc(NC(=O)CSc2nnc(-c3ccccc3F)n2C)on1	-8%	-5%	-9.9%	13%	0%	11%	10%	-16%
Cc1ccc(S(=O)(=O)N2CCN(C(=O)COC(=O)c3cncc(Br)c3)CC2)c(C)c1	5%	/	/	0%	-5%	-3%	-6%	/
Cc1nc(NC(=O)C2CCCCC2C(=O)O)sc1C (stereo not drawn)	2%	-10%	/	?	17%	1%	18%[46.1 µM]	/
CN(Cc1nc2ccccc2c(=O)[nH]1)c1ccccc1	9%	-2%	0.4%	2%	3%	-19%	0%	3%
Cc1ccc(-c2cc(C(=O)Nc3ccc(S(=O)(=O)Nc4onc(C)c4C)cc3)c3ccccc3n2)cc1	-3%	8%	/	-15%	-7%	-3%	-2%[46.1 µM]	/
O=C(CCn1c(=O)c2cccn2c2cccnc21)N1CCN(c2cccc(Cl)c2)CC1	-3%	-4%	-10.0%	?	?	-3%	?	11%
O=C(NCCCO)c1ccc2[nH]c3c(c2c1)CCCC3	2%	0%	-0.8%	-5%	28%	1%	?	-2%
CC(C)c1ccc(/C=c2\sc3n(c2=O)C(N)=C(C#N)C(c2ccc(C(C)C)cc2)C=3C(N)=O)cc1 (stereo not drawn)	1%	/	/	8%	-14%	/	1%[46.1 µM]	/
COc1ccc(C(=O)CCC(=O)Nc2ccc(C)c(Cl)c2)cc1	/	/	-10%	21%[46.1 µM]	1%	/	/	-3%
C[C@H](NS(=O)(=O)c1ccc(Cl)c(Cl)c1)C(=O)OCc1cc(=O)n2cc(Br)ccc2n1	69%	-38%	-9.6%	5%	-13%	-44%	?	5%
Cc1ccc(/C=C2/SC(=S)N(CCC(=O)N3CCN(c4ccccc4)CC3)C2=O)cc1	/	-1%	1.4%	/	/	12%	-1%	-8%
CN(C1CCCCC1)S(=O)(=O)c1ccc2c(c1)c(=O)c(C(=O)NCCc1ccc(Cl)cc1)cn2C	/	/	-0.4%	4%[46.1 µM]	11%	/	-9%[46.1 µM]	-2%
CCN(CC)S(=O)(=O)c1cccc(-c2nnc(SCC(=O)c3cc(C)n(C4CC4)c3C)o2)c1	17%	-9%	-3.4%	?	-12%	-2%	?	20%
CC(=O)Nc1c([N+](=O)[O-])cc2[nH]c(=O)[nH]c2c1[N+](=O)[O-]	25%	/	/	-1%	-4%	-1%	?	/
Cc1ccc(N2CC(C(=O)Nc3ccncc3)CC2=O)cc1 (stereo not drawn)	6%	-4%	0.9%	?	19%	4%	1%	-11%
Cc1cc(=O)oc2c1c(C)nn2-c1cccc(Cl)c1	0%	-6%	/	6%[46.1 µM]	-21%	2%	?	/
